Screening results deposited in PubChem by National Center for Advancing Translational Sciences (NCATS).
VDR inh – blocks the human vitamin D receptor | hit rate 0.93% among 400,000 | P11473 | Potency, µM, for inactives: max response, negative = inhibition, most hits filed as inhibitors | VDR-SRC2-3 peptide fluorescence polarization, 2 h; active = well fitted inhibition curve with a large enough effect; inconclusive = small, poorly fitted or top-dose-only effect, or another doubt; inactive = no such curve, though single readings can be large or run the other way; also: series mostly up to about 120 µM
Target sequence (P11473 whole entry, looked up): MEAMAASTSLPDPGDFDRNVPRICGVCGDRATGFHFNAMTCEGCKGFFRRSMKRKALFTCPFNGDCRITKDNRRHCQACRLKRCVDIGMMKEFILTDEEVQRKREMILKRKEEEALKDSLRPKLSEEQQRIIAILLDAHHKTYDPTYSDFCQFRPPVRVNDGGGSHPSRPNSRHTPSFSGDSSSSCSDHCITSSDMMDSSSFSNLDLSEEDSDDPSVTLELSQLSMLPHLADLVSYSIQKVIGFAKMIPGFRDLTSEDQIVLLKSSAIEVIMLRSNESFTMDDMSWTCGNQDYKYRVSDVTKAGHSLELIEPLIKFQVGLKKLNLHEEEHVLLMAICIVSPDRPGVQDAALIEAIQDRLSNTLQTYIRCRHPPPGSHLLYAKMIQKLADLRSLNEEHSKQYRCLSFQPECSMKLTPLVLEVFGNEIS
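Compounds are added to VDR with labelled SRC2-3 coactivator peptide and held 2 h at room temperature. Inhibition of the VDR–peptide interaction is then read as a change in fluorescence polarization.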
Active calls of the source: *; ? = inconclusive; & = joins results of further samples. % is scaled to controls: 0 for no effect and ±100 for the full control effect; potency is read from the fitted curve at half-maximal effect.

SMILES	VDR inh
COc1ccc(CNC(=O)[C@@H](NC(=O)C2CCN(C(=O)[C@@H](N)CC(C)C)CC2)C(C)C)cc1	-10%
CCN(C(=O)COC(=O)CNC(=O)c1ccccc1C)C1=CCCCC1	-12%
COc1ccc(-c2noc(CCC(=O)N(C)c3cc(Cl)ccc3OC)n2)cc1	-8%
COCCCNC(=O)C1CCN(S(=O)(=O)c2c(C)noc2/C=C\c2ccc(OC)cc2)CC1	-6%
Cc1ccc2cc(C#N)c(NCCNC(=O)C3CC3)nc2c1C	10%
Cc1cc(Cl)ccc1NC(=O)CN1C(=O)CSc2ccc(S(=O)(=O)N3CCOCC3)cc21	14%
O=C(COC(=O)Cn1cc(C(F)(F)F)ccc1=O)Nc1ccccc1	-8%
CCN1CCN(c2nc(-c3ccccc3Cl)nc3ccccc23)CC1	-16%
CC(NC(=O)c1ccco1)C(=O)Nc1nccs1 (configuration not stated)	-5%
CC1(C)Cc2ccccc2-c2nnc(-c3ccc4ccccc4n3)n21	9%
CCC(=O)Nc1cc(-c2nc3cc(C)cc(C)c3o2)ccc1C	-7%
O=C(Nc1cccc(-c2nnc(-c3ccccc3)o2)c1)c1ccco1	-10%
COc1ccc(OCCC(=O)OCC(=O)Nc2ccc(Br)cc2)cc1	-13%
C#CCCOC(=O)N1C2=NC(C(=O)OC)=C(C(=O)OC)[C@@H]3N(C)c4ccccc4[C@]23C[C@H]1CO	-19%
CCCCN(C)C(=O)c1nc2ccccn2c1CNC1CCC1	-7%
CCO[C@@H]1OC(C(=O)NCc2nc3ccccc3[nH]2)=C[C@H](c2coc3ccccc3c2=O)[C@H]1CCCO	-12%
CN1CCN(C(=O)CN(Cc2ccccc2)S(C)(=O)=O)CC1	17%
COC(=O)[C@@]1(C)[C@H]2C(=O)N(Cc3ccccc3)C(=O)[C@H]2[C@H]2CN=C(SCC3CC3)N21	13%
NC(=O)C1CCN(Cc2nc(-c3cccs3)no2)CC1	-15%
COc1ccc(CN2C(=O)C(C)N(C(=O)c3c(F)cccc3F)c3ccccc32)cc1 (configuration not stated)	-2%
Cc1cccc(NS(=O)(=O)c2cc(C(=O)N3CCc4ccccc4C3)ccc2Cl)c1C	-7%
Cc1nnc(SCc2ccccc2CSc2nnc(C)s2)s1	-22%
COc1ccccc1C1/C(=C(/O)c2ccc(C)cc2)C(=O)C(=O)N1Cc1ccco1 (configuration not stated)	-11%
CCCC(c1nnnn1CS(=O)(=O)c1ccc(C)cc1)N1CCC(C(N)=O)CC1 (configuration not stated)	8%
COc1ccccc1NC(=O)C(C/C=C(\C)Cl)C(C)=O (configuration not stated)	-13%
COc1ccc2c(c1)c1ncn(CCN3CCCC3)c(=O)c1n2C	0%
CN1C(=O)c2cccc(NC(=O)C3CCCCC3)c2C1=O	-9%
CCCCCCCC(=O)N1c2ccccc2NC(=O)C1CC(=O)Nc1ccc(C(=O)O)cc1 (configuration not stated)	-6%
CC(CN(C)C)C(C)(O)Cc1ccc(Cl)cc1 (configuration not stated)	4%
CN(CC(=O)Nc1ccc(F)cc1)C(=O)COC(=O)Cc1c(F)cccc1Cl	-11%
CCN(CC)CCN1C(=O)C(O)=C(C(=O)c2cc3cccc(OC)c3o2)C1c1cccs1 (configuration not stated)	-6%
CCOc1ccc(N(C)c2ccc(/C=C3/SC(=S)NC3=O)cc2)cc1	1%
O=C(CN(Cc1cccs1)C(=O)CSc1nnc(COc2ccccc2)o1)NC1CCCC1	10%
COc1ccc(/C=N/NC(=O)C2C(=O)NCC2c2ccccc2)c(OC)c1 (configuration not stated)	-11%
C/C(=N\NC(=O)c1cnccn1)c1ccc([N+](=O)[O-])cc1	18%
O=C(Cn1cnc2ccccc21)c1ccc(Cl)cc1	-1%
O=C(C[C@H]1C[C@H](C(=O)N2CCOCC2)[C@@]2(CCC3CCCC3)c3[nH]c4cc(-c5ccco5)ccc4c3CCN2C1=O)NCC12CC3CC(CC(C3)C1)C2	-25%
CCN(C[C@H]1N[C@@](CC)(C(=O)OC)[C@H]2C(=O)N(Cc3ccccc3)C(=O)[C@@H]12)C(=O)Nc1ccc(C(F)(F)F)cc1	-2%
COCCCNC(=O)CNC(=O)c1nn(-c2ccc(OC)cc2OC)c(=O)c2ccccc12	4%
CCC(Sc1nc2ccccc2c2nc(-c3ccccc3)nn12)C(=O)Nc1cccc(OC)c1 (configuration not stated)	21%
CCOC(=O)C1CCN(C(=S)Nc2cccc(C)c2)CC1	-1%
CCC(NS(=O)(=O)c1ccc(C)cc1)C(=O)N1CCOCCOCCOCC1 (configuration not stated)	-10%
Cc1cc(C)cc(OCC(=O)Nc2cnn(CCCC(=O)O)c2)c1	12%
COc1ccc(-c2[nH]c(-c3cc(OC)c4c(c3)OCO4)nc2-c2ccccc2)cc1	-5%
O=C(Cn1ncc2c1-c1ccccc1OC2)N1CCN(c2ccccc2F)CC1	-14%
CCc1ccc(NC(=O)N(Cc2ccc(C)cc2)Cc2cccn2-c2nnc(N3CCCC3=O)s2)cc1	5%
Cc1onc(-c2ccccc2)c1-c1nnc(CN2CCN(S(=O)(=O)c3ccccc3F)CC2)o1	-13%
COc1cc(O)c(C(CCN2CCCCC2)c2cc(OC)c(OC)c(OC)c2)c(OC)c1 (configuration not stated)	-22%&-11%
O=S(=O)(Nc1ccc(Cc2ccncc2)cc1)c1ccc(Cl)cc1	-2%
O=c1cc(C23CC4CC(CC(C4)C2)C3)[nH][nH]1	-9%
COCCNc1oc(-c2ccccc2Cl)nc1C#N	-3%
CCNC(=O)COC(=O)c1cc(-c2ccco2)nc2ccccc12	?
Cn1nnnc1SCC(=O)Nc1ccccc1N1CCOCC1	-15%
O=C(CCSCc1cnn(-c2ccccc2)c1-n1cccc1)NCc1ccc(Cl)cc1	3%
Cc1nc2ccc(NC(=O)c3ccc(Cl)c(NC(=O)c4cccs4)c3)cc2s1	12%
C=CC[C@@H](CC(=O)N[C@@H](CO)Cc1ccccc1)C(=O)N[C@@H](COC(=O)[C@@H](CC=C)CC(=O)OC(C)(C)C)Cc1c[nH]c2ccccc12	0%

Continuation:
SMILES	VDR inh
O=c1oc2ccccc2c(Nc2cccc3cccnc23)c1[N+](=O)[O-]	14%
CC(=O)N/C(=C\c1ccccc1)C(=O)N1CCOCC1	18%
CN(CC(=O)Nc1ccccc1Cl)C(=O)COC(=O)c1ccc([N+](=O)[O-])s1	-19%
Cc1cc(C(=O)CN2CCC(C)CC2)c(C)n1-c1ccccc1F	-11%
COc1ccc(C2=NN(c3nc(C)cc(C)n3)C(=O)C2)cc1	-3%
COc1ccc(OC)c(CN2C(=O)CCC2(C)C(=O)NC2CCCCCC2)c1 (configuration not stated)	-5%
COc1ccccc1CN1CCC(CNC(=O)c2cnn(-c3ccccc3Cl)c2C2CCN(C(=O)OC(C)(C)C)CC2)CC1	8%
Cc1c(CC(=O)NCC(=O)O)c(=O)oc2cc3c(cc12)CCC(C)(C)O3	-20%
COc1ccc(Cl)cc1NC(=O)C1CCCN(c2cc(C)nc3ncnn23)C1 (configuration not stated)	14%
CN(C)S(=O)(=O)N1CCCC(C(=O)c2ccc(-c3ccccc3)c(F)c2)C1 (configuration not stated)	-11%
CCN(CC)S(=O)(=O)c1cc(NC(=O)c2cccc(N3C(=O)CCC3=O)c2)ccc1Cl	-16%
O=C(O)CCNc1nc(-c2ccccc2)c2cc(Br)ccc2n1	-21%
CCCN1CCN(CC(=O)Nc2nnc(C)s2)CC1	-2%
COC(=O)c1cccc(NC(=O)CSc2nnc(COc3cccc(C)c3)n2C)c1	6%
O=C(Nc1cccc(O)c1)c1cccc(S(=O)(=O)N2CCCCCC2)c1	1%
CN1CCN(c2nc(-c3ccccc3C(F)(F)F)nc3ccccc23)CC1	?
CCc1c2c(nc3ccc(OC)cc13)-c1nc3ccccc3c(=O)n1C2	1%
Cc1ccc(-c2cc(C(=O)NCc3ccccn3)c3ccccc3n2)cc1C	?
CCCCNC(=O)c1cc(C)nc2ccccc12	4%
Nc1ncc([N+](=O)[O-])cc1S(=O)(=O)c1ccccc1	-6%
O=C(c1ccoc1)N1CCC(CO)(CCc2ccccc2)CC1	19%
CCN(CC)C(=O)CSc1nnc2nnc3cc(C)ccc3n12	16%
Oc1ccc(/C=N/NC(=S)N/N=C/c2ccc(O)cc2)cc1	?
C#CCOCCOCCOCCNc1nc(N2CCOCC2)nc(N2CCN(C(=O)[C@H](CCCN=C(N)N)n3cc(C(N)[C@@H](C)CC)nn3)CC2)n1 (some centres not stated)	-4%
CCN(NC(=O)C(O)(c1ccccc1)c1ccccc1)C(=O)c1ccccc1	1%
CCOC(=O)c1sc(C)c2c1NC(C)(c1cccs1)NC2=O (configuration not stated)	11%
COc1cccc(-n2c(=O)c3c4c(sc3n(Cc3ccccc3C#N)c2=O)CCCC4)c1	-3%
N#CC1=C(N)OC2=C(C(=O)CCC2)C1c1ccccc1 (configuration not stated)	-5%
COc1cccc(C(=O)N2CCCC(Nc3ccc(C)c(C)c3)C2)c1 (configuration not stated)	-19%
COc1ccccc1NS(=O)(=O)c1ccccc1C#N	-14%
Nc1cc(N2CCOCC2)c(Cl)cc1[N+](=O)[O-]	?
O=C(O)C(CO)(c1ccccc1)c1ccccc1	-13%
COc1ccc(S(=O)(=O)Cc2ccc(C(=O)N3CCCC3)o2)cc1	-17%
O=C(Nc1ccc(C(F)(F)F)cc1)c1cc(-c2cccnc2)nc2ccc(Br)cc12	1%
Cc1cc(C)c(C(=O)COC(=O)c2cccnc2Cl)c(C)c1	22%
COc1ccc(N=C2C(=Nc3ccc(OC)cc3)N(c3ccc(N(C)C)cc3)C(=S)N2c2ccc(OC)cc2)cc1	1%
COc1ccc([N+](=O)[O-])c2c1CCN2C(=O)CC[C@H](N)C(=O)O	4%
O=C(CSc1nc(=O)[nH]c2c1CCCC2)NCc1ccccc1	12%
CCOc1ccc(CNC(=O)C2CCN(S(=O)(=O)c3ccc4c(c3)CCCC(=O)N4)CC2)cc1	-8%
COc1cc(NS(=O)(=O)c2ccc(Br)cc2)c(OC)cc1NC(=O)c1ccco1	9%

The final 6 entries of the section above come first, to join the parts.
SMILES	VDR inh
Cc1cc(C)c(C(=O)COC(=O)c2cccnc2Cl)c(C)c1	22%
COc1ccc(N=C2C(=Nc3ccc(OC)cc3)N(c3ccc(N(C)C)cc3)C(=S)N2c2ccc(OC)cc2)cc1	1%
COc1ccc([N+](=O)[O-])c2c1CCN2C(=O)CC[C@H](N)C(=O)O	4%
O=C(CSc1nc(=O)[nH]c2c1CCCC2)NCc1ccccc1	12%
CCOc1ccc(CNC(=O)C2CCN(S(=O)(=O)c3ccc4c(c3)CCCC(=O)N4)CC2)cc1	-8%
COc1cc(NS(=O)(=O)c2ccc(Br)cc2)c(OC)cc1NC(=O)c1ccco1	9%
Clc1cccc(-c2cc3nc4c(c(N5CCN(c6cnccn6)CC5)n3n2)CCCC4)c1	3%
CCCn1cc(S(=O)(=O)c2cc(C)ccc2C)c(=O)c2cc(F)c(N3CCCCCC3)cc21	-2%
Cc1c2cnn(CC(=O)N3CCOCC3)c(=O)c2c(C)n1Cc1ccccc1F	?
Cc1cc(NC(=O)CSc2nc3cc(C(=O)NCCCOC(C)C)ccc3c(=O)n2Cc2ccco2)no1	1%
Cc1cc(C(=O)N2CCN(c3cc(Cl)ccc3C)CC2)on1	-26%
CC(C)(C)C(=O)COC(=O)CCc1nc2ccccc2[nH]c1=O	0%
O=C(COC(=O)CCC(=O)c1ccccc1)NCCc1ccccc1	1%
Cc1cccc(NC(=O)c2c(-c3ccccc3)noc2C)n1	1%
NC(=O)C1(N2CCCCC2)CCN(C(=O)c2cccn3c(=O)c4cc(Cl)ccc4nc23)CC1	?
NC(=O)N/N=C/C=C/c1ccccc1	-21%
Cc1nnc(Cl)c2nn(-c3ccccc3)c(C)c12	-8%
COc1ccc(-c2cc(C(F)(F)F)nc(SCC(=O)N3CCOCC3)n2)cc1OC	-11%
CCn1c(=O)cc(SCC(=O)NCc2ccco2)c2ccccc21	-9%
COc1ccc(NC(=O)CN(C)C(=O)Cc2ccc3c(c2)OCCO3)cc1	-1%
Fc1ccccc1CNCC1CCCO1 (configuration not stated)	-5%
O=C(Cn1cnc2c(cnn2-c2ccc(Cl)cc2)c1=O)N1CCN(c2ccccc2)CC1	-10%
O=C(NCC(c1ccco1)N1CCN(c2ccccc2F)CC1)C(=O)NC1CCCC1 (configuration not stated)	-18%
CC(C)(C)CC(C)(C)c1ccc(O)c(Cc2ccc(Cl)cc2Cl)c1	?
CS(=O)(=O)c1ccc(Cl)c(NC(=O)CCN2C(=O)C3CC=CCC3C2=O)c1 (configuration not stated)	-6%
CCOc1ccc(-n2nnc3c(=O)n(CC(=O)N4CCCc5ccccc54)cnc32)cc1	-22%
Cc1cccn2c(CNC3CCCc4ccccc43)c(C(=O)N3CCOCC3)nc12 (configuration not stated)	-4%
COc1ccc(NC(=O)c2cc3n(n2)C(C(F)(F)F)CC(c2ccc(OC)cc2)N3)cc1 (configuration not stated)	-19%
COc1ccc(S(=O)(=O)N2CCOC2CNC(=O)C(=O)NCCN2CCOCC2)cc1 (configuration not stated)	-4%
COc1cc(CCC(=O)OCC(=O)NCC2CCCCC2)cc(OC)c1OC	10%
O=C(CN1C(=O)c2ccccc2C1=O)Nc1cccnc1	6%

Looked up above:
Under VDR inh, `COc1ccc(NC(=O)c2cc3n(n2)C(C(F)(F)F)CC(c2ccc(OC)cc2)N3)cc1` (configuration not stated) has the entry -19%
Under VDR inh, `Cc1cccn2c(CNC3CCCc4ccccc43)c(C(=O)N3CCOCC3)nc12` (configuration not stated) has the entry -4%
Under VDR inh, `O=C(NCC(c1ccco1)N1CCN(c2ccccc2F)CC1)C(=O)NC1CCCC1` (configuration not stated) has the entry -18%

A portion of the library; rates above refer to the full screens.
